# Source: PubChem (several laboratories)
# Mtb bLac sens – beta-lactam sensitization of Mtb H37Rv, H37Rv | M. tuberculosis H37Rv growth with meropenem, percent inhibition; hits of this screen are not shown here | inhibition, % at 25 µM | 0.27% of 330,000 active;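 active = about 74% or more and at least 40 points above the plate without the antibiotic, then above 30% in a dose series; inconclusive = first-round hits that could not be retested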;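 also: growth measured after seven days incubation then overnight dye step; 0% = bacteria only wells and 100% = bacteria with antibiotic; twin plates without the antibiotic show which effects depend on it; some results filed as inactive read as strong as hits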
# YopH PTP inh – YopH tyrosine phosphatase inhibitors, primary screen, biochemical, fluorescence Ex485/Em525; YopH tyrosine phosphatase [Yersinia enterocolitica]; inhibition, %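 (about 10 µM by stock and volumes)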; 0.16% of 140,000 active;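 active = inhibition of 50% or more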;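 also: controls were vehicle for no effect and minimum signal wells for full effect; inactives centre near -20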
# Mtb growth – M. tuberculosis H37Rv growth inhibitors, H37Rv strain (AID 1626). M. tuberculosis H37Rv growth inhibition; higher % means a stronger effect. inhibition, % at 10 µM, or IC50 in µM where a hit was titrated. 0.95% of 220,000 active;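 active = confirmed in a dose series; inconclusive = inhibition above 80% but not taken into the dose series; inactive = below 80% or under 30% at every dose of the series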;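 also: bacteria incubated seven days before Alamar blue readout; 0% = bacteria only wells and 100% = bacteria with antibiotic wells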
# RecA splice inh – Mtb RecA intein splicing inhibitors, primary screen, biochemical, fluorescence, HTS; Protein RecA (Mycobacterium tuberculosis (strain ATCC 25618 / H37Rv)), P9WHJ3; cell-free RecA intein splicing; inhibition, %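 (about 9 µM by stock and volumes)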; 0.75% of 290,000 active; AID 2221, 2009; in the data active = inhibition above about 30%; inconclusive = no clear call, values can overlap the other calls;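 also: 0% = vehicle wells and 100% = reference inhibitor control wells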
# Target sequence (P9WHJ3 whole entry, looked up, canonical isoform): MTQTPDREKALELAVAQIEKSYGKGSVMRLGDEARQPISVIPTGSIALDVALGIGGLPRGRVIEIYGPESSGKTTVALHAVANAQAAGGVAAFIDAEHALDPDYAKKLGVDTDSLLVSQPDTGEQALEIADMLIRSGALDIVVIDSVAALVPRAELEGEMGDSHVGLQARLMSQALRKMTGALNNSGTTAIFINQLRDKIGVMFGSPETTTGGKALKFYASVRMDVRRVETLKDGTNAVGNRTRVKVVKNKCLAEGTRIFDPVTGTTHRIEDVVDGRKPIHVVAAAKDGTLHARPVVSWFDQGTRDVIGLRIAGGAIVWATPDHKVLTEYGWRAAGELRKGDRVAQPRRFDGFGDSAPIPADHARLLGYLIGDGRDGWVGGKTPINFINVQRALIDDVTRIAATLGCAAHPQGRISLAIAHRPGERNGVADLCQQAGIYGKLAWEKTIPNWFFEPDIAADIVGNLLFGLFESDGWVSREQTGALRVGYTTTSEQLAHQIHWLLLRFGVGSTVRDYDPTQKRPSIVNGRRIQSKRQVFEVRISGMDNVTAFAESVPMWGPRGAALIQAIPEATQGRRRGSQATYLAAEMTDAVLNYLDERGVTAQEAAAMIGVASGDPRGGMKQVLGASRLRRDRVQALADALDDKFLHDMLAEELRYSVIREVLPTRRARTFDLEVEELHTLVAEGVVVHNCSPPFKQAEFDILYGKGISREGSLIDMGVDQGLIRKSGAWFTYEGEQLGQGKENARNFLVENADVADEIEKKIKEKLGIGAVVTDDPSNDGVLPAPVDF
# Arbovirus inh – antivirals against arbovirus infection, primary screen, cell-based, full library, 10K replicate subset; arbovirus infection cell-based antiviral screen; inhibition, % at 10 µM; 0.37% of 200,000 active; AID 1251, 2008;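 active = inhibition from about 30%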;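 also: bluetongue infection of BSR cells; cell survival read as ATP light after 72 h; 0% = infected wells without compound and 100% = uninfected wells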
# Arbovirus inh repeat – second read-out of Arbovirus inh, no call of its own (marks repeat the call); inhibition, %; measured here: 10K subset replicate screen; many hits read low in the repeat;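 first of two repeat runs on a subset; 0% = infected and 100% = uninfected wells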
# The depositor's hits bear a star; u = inconclusive; x = no result given. The list is partial, so the mix of outcomes need not match the whole.
SMILES,Mtb bLac sens,YopH PTP inh,Mtb growth,RecA splice inh,Arbovirus inh,others
Cc1ccc(SC(C)C(=O)Nc2ccccc2C(=O)N2CCOCC2)cc1 (configuration not stated),-11,-15,-1%,0.1,-1,
Cc1c(-c2ccc(Br)cc2)[n+](=O)c2c(n1[O-])CCCC2,-8,x,0%,-3.6,5,
CC(C)=N/N=C(\c1cccc([N+](=O)[O-])c1)C12CN3CN(CN(C3)C1)C2,-2,-8,-6%,0.7,8,
Cc1ccc(C(=O)Nc2ccc(-n3ccnc3P(=O)(O)c3ccccc3)cc2)cc1,-2,-38,1%,-5.2,0,
CC1=C(C)C(=O)N(c2ccccn2)C1=O,-7,4,-4%,1.6,5,
COc1ccc(-n2c(=O)[nH]cc(C(=O)Nc3ccc4c(c3)OCCO4)c2=O)cc1,4,-14,-8%,-4.5,2,
Cc1cc([N+](=O)[O-])ccc1NC(=O)c1ccc(NC(=O)C(C)C)cc1,95,x,12µM*,-3.3,-4,
Cc1ccc(OCC(=O)NNC(=O)CCc2ccccc2)cc1,x,-23,3%,-1.8,1,
COc1ccc(NC(=O)C2CC(c3c(F)cccc3Cl)=NO2)cc1OC (configuration not stated),-3,x,x,1.5,x,
Cc1cc(C)nc(NS(=O)(=O)c2ccc(NC(=O)CCN3C(=O)c4ccccc4C3=O)cc2)n1,4,2,0%,3.0,0,
CCc1nc2ccccc2[nH]1,-1,-22,9%,-0.1,7,
O=C(NNC(=O)c1cc(-c2ccncc2)nc2ccccc12)Nc1ccc(F)cc1,-3,x,x,-0.8,x,
C/C(=N\NC(=O)CCCC(=O)O)c1c(-c2ccccc2)c2cc(Cl)ccc2[nH]c1=O,-1,x,3%,2.6,x,
CCN(CC)S(=O)(=O)c1ccc2oc(C(=O)NCC3COc4ccccc4O3)c(C)c2c1 (configuration not stated),7,-10,10%,5.5,11,Arbovirus inh repeat=-2
Cc1nnc2ccc(-c3cccc(NS(C)(=O)=O)c3)nn12,3,x,-1%,-2.4,3,
O=C(NN1CCCCC1)c1ccccc1,1,2,-6%,-1.4,6,
CCOC(=O)c1c(NC(=O)CSc2nnnn2-c2ccc3c(c2)OCCO3)sc(C)c1C,12,-53,-5%,-0.5,-2,
c1ccc2c(c1)nc(N1CCOCC1)c1nncn12,-4,-10,x,0.2,17,
CCN1C(=O)N[C@@H](c2ccccc2)[C@H](C(=O)OC)[C@H]1C,-4,x,-6%,0.6,x,
CSc1nc2ccc(NC(=O)c3c(F)cccc3F)cc2s1,8,x,8%,0.6,-4,
O=C(c1cccc2ccccc12)C1CCCN(C(=O)C2CCOCC2)C1 (configuration not stated),-1,x,-4%,-3.6,x,
CC(NC(=O)c1ccc(Br)o1)c1ccccc1 (configuration not stated),-4,x,-9%,1.6,3,
CCOc1ccc(NC(=O)c2cc(S(=O)(=O)N3CCOCC3)cn2C)cc1,-13,x,x,-0.5,x,
COc1ccc(S(=O)(=O)NC2CCCC2)cc1NC(C)=O,-12,x,x,4.9,x,
O=C(c1noc2c1CCc1ccccc1-2)N1CCc2ccccc2C1,x,-21,1%,x,6,
Cc1occc1C(=O)Nc1cccc(Cl)c1Cl,-3,x,x,0.8,x,
COc1ccc(Cn2c(=O)[nH]c3cc(C(=O)NCCCOC(C)C)ccc3c2=O)cc1,0,x,-5%,4.1,6,
Cc1ccc(N=C(NOC(=O)c2ccccc2)c2nonc2N)c(C)c1,-6,-40,1%,12,4,
O=C(CC1C(=O)NCCN1Cc1ccc(F)cc1)NCCCn1cccn1 (configuration not stated),0,x,-4%,4.5,5,
CCOC(=O)N1CCN(c2nc(-c3cccc(OC)c3)cc(C(F)(F)F)n2)CC1,11,-45,0%,1.8,16,
CCOC(=O)Cc1csc(NC(=O)CSc2nccn2C)n1,1,x,x,-0.7,x,
Clc1ccccc1Nc1c2c(nc3ncnn13)CCC2,4,-51,-4%,-0.2,-10,
O=C(CCc1nnc2ccc(NCc3ccco3)nn12)N1CCN(c2ccc(F)cc2)CC1,0,x,x,-0.8,x,
CCOc1ccc2[nH]c(=O)c(CN(Cc3cccs3)C(CC)c3nnnn3C(C)(C)CC)cc2c1 (configuration not stated),x,-12,23%,1.4,9,
Nc1ccc(C(=O)Nc2cccc(N)c2)cc1,1,x,-23%,1.7,x,
O=C1CCN(C(=O)c2ccccc2)C2CCCCC12 (configuration not stated),-1,-10,-8%,-1.8,-6,
CCOC(=O)c1cnc2cc(-c3ccc(C(C)(C)C)cc3)nn2c1N,x,-41,12%,-4.3,3,
CCOc1ccccc1NS(=O)(=O)c1cn(C)nc1C,3,x,-6%,4.7,4,
COc1ccc(OC)c(C(=O)c2ccc(C(=O)c3cc(OC)ccc3OC)cc2)c1,10,-9,6%,-1.9,-14,
O=C(NCCCc1nc2ccccc2[nH]1)c1ccco1,5,x,x,-0.7,x,

# Sorted by length of the SMILES (smallest number first): some entries from above.
SMILES,Mtb bLac sens,YopH PTP inh,Mtb growth,RecA splice inh,Arbovirus inh,others
Nc1ccc(C(=O)Nc2cccc(N)c2)cc1,1,x,-23%,1.7,x,
O=C(NCCCc1nc2ccccc2[nH]1)c1ccco1,5,x,x,-0.7,x,
CCOC(=O)c1cnc2cc(-c3ccc(C(C)(C)C)cc3)nn2c1N,x,-41,12%,-4.3,3,
COc1ccc(OC)c(C(=O)c2ccc(C(=O)c3cc(OC)ccc3OC)cc2)c1,10,-9,6%,-1.9,-14,

# (further entries)
SMILES,Mtb bLac sens,YopH PTP inh,Mtb growth,RecA splice inh,Arbovirus inh,others
Cc1cc(C)c(NC(=O)CSc2nc(=O)n(CCN3CCOCC3)c3c2CCCC3)c(C)c1,0,x,x,0.8,x,
CCCOc1ccc(N2C(=O)CC(N(CCc3ccc(OC)cc3)C(=O)c3ccccc3)C2=O)cc1 (configuration not stated),-7,x,-2%,-1.2,x,
COc1ccc(OC)c(C2=NS(=O)(=O)N(C)C(C(=O)NCc3cccs3)=C2)c1,-2,x,x,-0.1,x,
O=c1[nH]c(=O)n(-c2ccc(F)cc2)c(O)c1C=Nc1ccccc1N1CCCC1,2,-22,-3%,-69,-2,
Cc1cc(C)c2cc(CN(CCO)C(=O)NC3CCCCC3)c(=O)[nH]c2c1,0,x,-3%,0.1,x,
C=C(C)C(=O)NNc1ccccc1,-7,x,u,-1.2,-33,
CCOC(=O)C1(Cc2cccc(F)c2)CCN(CC2CC2)CC1,0,x,0%,0.3,-11,
Cc1ccc2[nH]c(=O)c(CNS(=O)(=O)c3ccccc3)c(-c3ccccc3)c2c1,3,-6,6%,-4.2,-5,
CCN(CC)c1ccc(S(=O)(=O)N2CCOCC2)cc1NC(=O)CN1CCc2ccccc2C1,-5,x,22%,24,4,
COc1ccccc1N1CCN(C(=O)c2c(-c3ccccc3Cl)noc2C)CC1,-9,-8,7%,2.4,-22,
COc1ccccc1Nc1ccc(C(=O)O)cc1[N+](=O)[O-],8,x,12%,9.3,14,
CCCN(CCC)C(=O)CSc1nc2ccccc2c(=O)n1CC1COc2ccccc2O1 (configuration not stated),-3,1,-4%,-0.5,-5,
CCOC(=O)c1cc(-c2nnc(-c3cc(OC)c(OC)c(OC)c3)o2)c(C)nc1C,1,-34,12%,0.0,x,
CCC(=O)NNc1nc2c(Cl)cccc2s1,-3,x,5%,x,0,
Cc1noc(NC(=O)c2c(-c3c(Cl)cccc3Cl)noc2C)c1[N+](=O)[O-],2,x,-12%,2.6,x,
CCCCc1nnc(NC(=O)C2CC(=O)N(Cc3ccccc3)C2)s1 (configuration not stated),-2,x,x,3.1,x,
COc1cc(C(=O)OCc2cc3ccccc3[nH]c2=O)cc(OC)c1OC,2,-10,4%,0.4,-8,
O=C(CNC(=O)c1nc[nH]c1C(=O)NCc1ccccc1)OCc1ccccc1,5,x,x,4.0,x,
CN1C(=O)c2ccccc2C(C(=O)NCC2CCCO2)C1c1c[nH]c2ccccc12 (configuration not stated),-4,-28,-3%,-2.3,5,
CC(=O)N(Cc1ccc(F)cc1)c1cccc(C)c1C,5,x,7%,-1.3,-3,
O=C(Nc1ccccc1N1CCCCC1)c1ncoc1-c1cccc(F)c1,59,x,8%,2.4,x,
C/C(=N/NS(=O)(=O)c1cccc([N+](=O)[O-])c1)c1c[nH]c2ccccc12,3,x,x,-2.3,x,
O=S(=O)(c1ccccc1)[C@@]1(c2ccc(Br)cc2)C[C@@H]2ON=C(c3ccccc3)[C@@H]2C1,-12,x,x,8.2,x,
c1ccc(Cn2ncc3ccccc32)cc1,20,-15,-11%,2.9,7,Arbovirus inh repeat=-3
CCc1cccc(Nc2cc(C)nc3nc(C)nn23)c1,-3,-20,3%,-0.7,-2,Arbovirus inh repeat=-5
CN1C(=S)SC(/[N+]([O-])=C\c2ccco2)C1(C)C (configuration not stated),-10,-5,-12%,-0.7,-4,
O=C(N/N=C/c1ccc(OC2CSC2)cc1)c1ccc(CN2CCOCC2)cc1,-1,x,-14%,-3.5,-35,
COc1ccc(C2/C=C\CNCC(=O)N2Cc2ccc(F)cc2)cc1 (configuration not stated),-4,x,-9%,1.7,x,
CCC1(CC)C(=O)C2=C3C1[C@H](C(=O)OC)C=C(C(=O)OC)C[C@H]3n1c(=O)n(-c3ccccc3)c(=O)n1[C@H]2C (some centres not stated),-5,x,-12%,-2.4,x,
COc1ccccc1CCNC(=O)C1CCN(c2nnc(C)c3c(C)n(-c4ccc(C)cc4)nc23)CC1,84,x,x,-0.7,x,
Cc1ccc(CCNC(=O)C2CCN(S(=O)(=O)c3ccc4c(c3)CCC(=O)N4)CC2)cc1,8,-13,-8%,x,-6,
COC(=O)c1ccc(NC(=S)N2CCN(CCO)CC2)cc1,-7,x,x,-5.0,x,
Cc1nc(NC(=S)NC(=O)c2ccccc2)sc1C(=O)N(C)C,-5,-24,-8%,-0.9,6,
Cc1ccc(Cn2ncc3c(NCCN(C)C)ncnc32)cc1,-8,x,x,0.0,x,
Cc1ccc(OCC(=O)NCC2CCCO2)c(C)c1 (configuration not stated),4,x,3%,-0.8,-10,
Nc1cccc(-c2nc3ccccc3s2)c1,79,-70,22%,-1.5,-5,
O=C(NC1CCN(Cc2ccccc2)CC1)c1ccc(S(=O)(=O)NCc2ccco2)cc1,-6,x,4%,3.6,2,
Cn1nc(C(F)(F)F)c(-c2cccc(C(F)(F)F)c2)c1NC(=O)c1cccnc1,0,x,-1%,-0.5,x,
CC(Oc1ccccc1)C(=O)N1CCN(C(=O)C(C)Oc2ccccc2)CC1 (configuration not stated),-4,x,x,1.2,x,
Cc1ccccc1NC(=O)c1cc(S(=O)(=O)N2CCCCC2)cs1,6,-6,-4%,2.3,2,
CCN(CC)c1ccc(C(=O)OCC(=O)Nc2sccc2C#N)cc1,1,-24,-10%,2.7,-3,
Clc1ccc(Oc2ccccc2)c2ncccc12,0,x,x,6.5,x,
COc1ccc2nc(NC(=O)Cc3ccc(OC)c(S(=O)(=O)N4CCOCC4)c3)sc2c1,-2,-47,0%,1.7,-8,
O=C(Nc1cccc(C(=O)O)c1)/C(=C\c1ccc2c(c1)OCO2)NC(=O)c1ccccc1Cl,-2,x,x,0.0,x,
CC(C)Cc1cc(C(=O)N(C)C2CCCN(Cc3ccccc3F)C2)n(C)n1 (configuration not stated),0,x,x,2.7,x,
O=C(c1cc(NC(=O)C23CC4CC(CC(C4)C2)C3)cc(NC(=O)C23CC4CC(CC(C4)C2)C3)c1)N1CCCCC1,8,-37,7%,-0.7,22,
CC(=O)c1cccc(S(=O)(=O)NCCC(=O)Nc2ccc(S(N)(=O)=O)cc2)c1,-15,x,x,-0.3,x,
CCOC(=O)N1CCN(CC(O)COc2c(OC)cccc2OC)CC1 (configuration not stated),-9,-39,-7%,0.7,7,
COc1ccc(C)cc1S(=O)(=O)NC1CCCCC1C (configuration not stated),4,-17,-5%,-0.4,3,
CN1c2ccccc2Oc2ccccc21,0,-14,7%,-1.7,-4,
# (next part)
SMILES,Mtb bLac sens,YopH PTP inh,Mtb growth,RecA splice inh,Arbovirus inh,others
O=c1[nH]c(=O)n(-c2ccc(Br)cc2)c(O)c1C=NCCN1CCCCC1,-11,x,-3%,1.5,x,
Cc1cccc(CNC(=O)CC2C(=O)NCCN2C2CCCC2)c1 (configuration not stated),-3,x,x,1.9,x,
CCOC(=O)c1c(-n2c(C)cc(/C=C3\C(=O)NC(=O)N(C)C3=O)c2C)sc2c1CCCC2,-2,-22,-13%,0.3,-8,
CCOC(=O)C(Sc1ncnc2c1sc1nc(N3CCOCC3)c3c(c12)CCCC3)c1ccccc1 (configuration not stated),x,-6,8%,x,-1,
CCCC(C)NS(=O)(=O)c1ccc(OC)c(C)c1 (configuration not stated),-31,-20,3%,-1.1,5,
